Rhodamine autofl: rhodamine region autofluorescence. 0.05% of 59,000 active. max dye-equivalent concentration, M. Rhodamine-region fluorescence, 547/598 nm, Tris buffer; active compounds read high. AID 594; in the data active means max dye-equivalent concentration above about 11 nM; inconclusive means between about 1.1 nM and that limit
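Intrinsic compound fluorescence, ex 547 / em 598 nm, CCD imager. Tris 100 mM pH 8.0; 15 min RT. Output = rhodamine dye-equivalent concentration at each compound concentration.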
Casp1 inh: caspase-1 (human) inhibition, allosteric or competitive | P29466 | Caspase-1 enzyme, Ac-WEHD-AFC fluorogenic rate | Potency, µM (series often up to 57.5 µM), for inactives: at the top dose activity change, negative = inhibition, hits mostly inhibitors | 0.03% of 75,000 active;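 further: potency means the concentration at half of the fitted maximal effect; plate controls were vehicle for no effect and no substrate for full effect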
Tau fil binding: tau filament binding. Potency, µM (top dose mostly 57.1 µM), inactives show at the highest dose activity change, negative = inhibition. recombinant tau filaments, thioflavin S fluorescence, 15 h; filaments grown with octadecylsulfate alongside compound. P10636. AID 596. 2% of 71,000 active;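 further: potency means the concentration at half of the fitted maximal effect; on the % scale 0 is the no-effect control and ±100 the full control effect; actives lower thioflavin S fluorescence by blocking filaments or displacing dye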
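Thioflavine S fluorescence (ex 450, em 510 nm) reports filaments formed from 1 uM human tau plus 30 uM ODS over 15 h at 37 C (10 mM HEPES pH 7.4, 100 mM NaCl, 5 mM DTT); compounds displacing dye or blocking filaments lower signal.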
TexasRed autofl: compound fluoresces in the Texas Red spectral region; max dye-equivalent concentration, M; Compound fluorescence, Texas Red channel, 547/618 nm; active compounds read high; 0.06% of 59,000 active; in the data active means max dye-equivalent concentration above about 10 nM; inconclusive means between about 1.1 nM and that limit
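Spectral interference profiling: each compound concentration's relative fluorescence, read with a 547 nm excitation and 618 nm emission filter pair, was normalized to a per-plate Texas Red standard curve.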
Fluorescein autfl: fluorescein region autofluorescence. Compound autofluorescence, 480/540 nm, fluorescein-equivalent; active compounds read high. max fluorescein-equivalent concentration, M. 0.91% of 59,000 active. AID 593; in the data active means max fluorescein-equivalent concentration above about 10 nM; inconclusive means between about 1.1 nM and that limit
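In this qHTS profile, compound fluorescence was measured with a 480 nm/540 nm filter pair following a 15-min room-temperature incubation in 100 mM Tris (pH 8.0). A six-point fluorescein series on each plate served for normalization.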
Caspase-7 inhib: allosteric or competitive inhibitors of human caspase-7; recombinant caspase-7, Ac-DEVD-AFC fluorescence rate; P55210; Potency, µM (titrated, usually from 57.5 µM), inactives show top-dose activity change, negative = inhibition, usual class: inhibitors; 0.02% of 75,000 active; AID 889; active means well fitted inhibition curve with a large enough effect in the main read-out, with a control signal flat, not every such curve was filed as active; inconclusive means small, poorly fitted or top-dose-only effect, or a change in a side signal; further: potency means the concentration at half of the fitted maximal effect; % of control where 0% means no effect
Target sequence (P55210 24-198 limits assumed): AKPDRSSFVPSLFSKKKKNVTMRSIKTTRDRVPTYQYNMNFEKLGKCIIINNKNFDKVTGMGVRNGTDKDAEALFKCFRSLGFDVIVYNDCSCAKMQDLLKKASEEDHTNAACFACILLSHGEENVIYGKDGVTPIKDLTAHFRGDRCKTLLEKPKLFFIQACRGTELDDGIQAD
Target sequence (P55210 207-303 limits assumed): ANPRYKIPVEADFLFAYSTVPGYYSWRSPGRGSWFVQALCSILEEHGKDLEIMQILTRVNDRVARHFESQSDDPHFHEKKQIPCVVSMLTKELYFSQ
The depositor's hits bear a star; i = inactive; ? = inconclusive; nt = no result given; & = joins results of further samples; [ ] = another dose, or the depositor's remark. Unless noted, the call rests on the fitted dose curve; in most records, active means well fitted curve in the direction sought with a large enough effect; inconclusive means small, poorly fitted or top-dose-only effect, or another doubt; inactive means no such curve, though single readings can be large; an effect the other way counts as inactive or inconclusive.

Every second line gives: Rhodamine autofl	Casp1 inh	Tau fil binding	TexasRed autofl	Fluorescein autfl	Caspase-7 inhib
> CC(=O)OC1C(=O)[C@]2(C)C(O)CC3OC[C@]3(OC(C)=O)C2[C@@H](OC(=O)c2ccccc2)[C@]2(O)CC(O)C(C)=C1C2(C)C (stereo partly drawn)
    nt	1.6%	nt	nt	nt	-0.3%
> CC[C@@]1(c2ccc(N)cc2)CCC(=O)NC1=O
    i	-3.2%[25.7 µM]	-13.8%[25.6 µM]	?	?	0.4%[25.7 µM]
> CC[C@]1(O)C(=O)OCc2c1cc1n(c2=O)Cc2cc3ccccc3nc2-1
    i	-3.1%	?	i	i	-6.0%
> CC[C@@]1(O)C(=O)OCc2c1cc1n(c2=O)Cc2cc3ccccc3nc2-1
    i	-3.7%	?	?	?	-6.1%
> NC(Cc1ccc(N(CCCl)CCCl)cc1)C(=O)O (stereo not drawn)
    nt	-0.9%	nt	nt	nt	0.1%
> NN=C(N)N
    i	1.8%&-1.8%&2.2%&0.1%	?	?	?	-0.3%&2.7%&1.4%&-0.3%
> CC(C)N(CC[C@@](C(N)=O)(c1ccccc1)c1ccccn1)C(C)C
    i	-2.5%[25.7 µM]	3.1%[25.6 µM]	?	?	1.4%[25.7 µM]
> NC(=O)CN1CCCC1=O
    i	1.0%	2.6%[25.6 µM]	i	?	0.2%
> NC(=NCc1ccc(Cl)cc1)SCCCc1cnc[nH]1
    nt	-0.3%	16.2%	nt	nt	0.5%
> CC[N+](C)(C)c1cccc(O)c1
    i	1.3%	-9.7%[25.6 µM]	?	i	1.2%

2 entries drawn at random from the list so far:
Every second line gives: Rhodamine autofl	Casp1 inh	Tau fil binding	TexasRed autofl	Fluorescein autfl	Caspase-7 inhib
> CC(=O)OC1C(=O)[C@]2(C)C(O)CC3OC[C@]3(OC(C)=O)C2[C@@H](OC(=O)c2ccccc2)[C@]2(O)CC(O)C(C)=C1C2(C)C (stereo partly drawn)
    nt	1.6%	nt	nt	nt	-0.3%
> NN=C(N)N
    i	1.8%&-1.8%&2.2%&0.1%	?	?	?	-0.3%&2.7%&1.4%&-0.3%

As entered above.
Value for `NC(=NCc1ccc(Cl)cc1)SCCCc1cnc[nH]1` under Caspase-7 inhib: 0.5%
Value for `NC(=O)CN1CCCC1=O` under Caspase-7 inhib: 0.2%

A different layout for part of the listing above.
> CC(=O)OC1C(=O)[C@]2(C)C(O)CC3OC[C@]3(OC(C)=O)C2[C@@H](OC(=O)c2ccccc2)[C@]2(O)CC(O)C(C)=C1C2(C)C (stereo partly drawn)
  Rhodamine autofl: nt
  Casp1 inh: 1.6%
  Tau fil binding: nt
  TexasRed autofl: nt
  Fluorescein autfl: nt
  Caspase-7 inhib: -0.3%
> CC[C@@]1(c2ccc(N)cc2)CCC(=O)NC1=O
  Rhodamine autofl: i
  Casp1 inh: -3.2%[25.7 µM]
  Tau fil binding: -13.8%[25.6 µM]
  TexasRed autofl: ?
  Fluorescein autfl: ?
  Caspase-7 inhib: 0.4%[25.7 µM]
> CC[C@]1(O)C(=O)OCc2c1cc1n(c2=O)Cc2cc3ccccc3nc2-1
  Rhodamine autofl: i
  Casp1 inh: -3.1%
  Tau fil binding: ?
  TexasRed autofl: i
  Fluorescein autfl: i
  Caspase-7 inhib: -6.0%

Screens deposited in PubChem by National Center for Advancing Translational Sciences (NCATS).

An excerpt. The share of hits here may be higher or lower than overall.
